gsp agonist – agonists of gsp mutant (McCune-Albright syndrome). gsp mutant cells, cAMP HTRF, 30 min; control for the full effect not named in the record. actives 0.13% (n = 340,000). Potency, µM (titrated, usually from 76.9 µM), for inactives: at the top dose activation (cAMP increase), actives largely listed as activators. AID 624287; active = well fitted activation curve with a large enough effect; inconclusive = small, poorly fitted or top-dose-only effect, or another doubt; inactive = no such curve, though single readings can be large or run the other way; cell line not stated here;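 note: phosphodiesterase inhibitor Ro 20-1724 added with compounds to block cAMP breakdown; potency is the fitted concentration of half-maximal effect; nearly all actives have a fitted effect of over 60% in size; about a fifth of the inactives were tested at one dose only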
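Cells in DMEM/10% FBS with G418 were pretreated with compounds in DMSO plus […] (300 uM stock) for 30 min at 37C. cAMP was measured by HTRF (cAMP-d2 plus anti-cAMP antibody-K) after 30 min at room temperature.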
ClpP mod – qHTS Assay for Activators of ClpP. ATP-dependent Clp protease proteolytic subunit (Bacillus subtilis (strain 168)), P80244. Potency, µM (top dose mostly 57.5 µM), inactives show top-dose activity change, negative = active. purified B. subtilis ClpP, FRET peptide cleavage, 20 min. actives 1.9% (n = 340,000). AID 651965, 2013; active = well fitted falling curve with a large enough effect; inconclusive = small, poorly fitted or top-dose-only effect; inactive = no such curve, though single readings can be large or run the other way; note: potency is the fitted concentration of half-maximal effect; the source files actives as falling curves though it sought activators and does not explain the sign; nearly all actives have a fitted effect of over 65% in size; many hits overshoot -100%
Target sequence (P80244 whole entry, looked up): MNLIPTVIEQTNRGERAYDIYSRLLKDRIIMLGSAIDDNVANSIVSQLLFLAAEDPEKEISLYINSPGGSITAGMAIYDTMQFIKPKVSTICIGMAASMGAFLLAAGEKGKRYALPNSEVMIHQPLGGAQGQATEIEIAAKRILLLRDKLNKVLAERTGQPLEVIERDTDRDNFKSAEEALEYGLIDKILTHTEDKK
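Buffer: 100 mM Tris/HCl pH8, 100 mM KCl, 0.05% low protease BSA, 2.5% glycerol, 0.01% Tween-20. ClpP 10 microg/mL final; 20 min RT; delta FRET normalized to ADEP and DMSO controls.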
TRPML1 agonist – activates the human TRPML1 channel. Q9GZU1. TRPML1-expressing cells, Ca2+ dye fluorescence, FDSS; host cell line not named in the record; reference of the full effect not given here. activation, % (no concentration beside the values). actives 0.12% (n = 410,000); in the data active = activation above about 50%; inconclusive = about 30% to 50%; inactive = below about 30%; note: 0% is about no effect; the text of the record puts the active cut at 80%
Target sequence (Q9GZU1 whole entry, looked up): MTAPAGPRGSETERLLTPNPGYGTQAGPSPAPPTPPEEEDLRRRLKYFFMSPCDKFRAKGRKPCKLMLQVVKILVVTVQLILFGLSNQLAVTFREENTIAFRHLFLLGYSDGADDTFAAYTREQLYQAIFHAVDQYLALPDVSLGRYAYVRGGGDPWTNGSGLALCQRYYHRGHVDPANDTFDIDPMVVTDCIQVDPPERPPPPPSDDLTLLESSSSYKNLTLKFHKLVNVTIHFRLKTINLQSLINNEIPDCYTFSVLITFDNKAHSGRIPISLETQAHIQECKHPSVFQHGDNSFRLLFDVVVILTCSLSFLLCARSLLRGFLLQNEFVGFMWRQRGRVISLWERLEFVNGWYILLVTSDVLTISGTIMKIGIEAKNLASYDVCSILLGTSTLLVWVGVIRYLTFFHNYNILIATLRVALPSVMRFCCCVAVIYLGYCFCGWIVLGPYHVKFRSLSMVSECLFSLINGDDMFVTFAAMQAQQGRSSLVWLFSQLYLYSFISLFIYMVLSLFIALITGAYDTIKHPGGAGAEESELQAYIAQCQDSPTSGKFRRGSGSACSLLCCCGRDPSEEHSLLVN
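Kinetic FDSS Ca2+ read in Tet-induced TRPML1-DL cells (ABD Ca8 dye plus quencher, 45-90 min RT loading): baseline, then compound, then 110 s agonist window; EC80 agonist 54-4 at 4uM final added afterwards for a 110 s antagonist window.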
gsp antag – antagonizes gsp, the McCune-Albright syndrome mutation; AID 624288; gsp-mutant cells, cAMP HTRF, 30 min; control for the full effect not named in the record; Potency, µM (doses to about 76.9 µM), for the others: at the top dose activity change, negative = inhibition, usual class: inhibitors; actives 0.4% (n = 340,000); active = falling curve of any shape with a large fitted effect; inconclusive = falling curve, mostly with a smaller effect; inactive = flat or rising curve; cell line not stated here;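 note: intracellular cAMP measured with PDE inhibitor Ro 20-1724 present during compound exposure; potency is the fitted concentration of half-maximal effect; % is set by controls: 0 for no effect and ±100 for the full control effect; nearly all actives have a fitted effect of over 65% in size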
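Cells, 2000/well, grown 16–24 h in DMEM 10% FBS with 0.5 mg/ml G418, then compounds plus […] (300 uM addition stock), 30 min at 37C. cAMP read by HTRF (cAMP-d2 and anti-cAMP antibody-K in lysis buffer) after 30 min RT.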
Menin MLL FP FL – displaces fluorescein MLL peptide from human menin; Fluorescence polarization, fluorescein-MLL peptide displacement from menin; 290,000 tested, under 10 active; AID 1766; FP activity change, % at 61.4 µM; inconclusive = falling polarisation curve, or a change in total fluorescence; inactive = total fluorescence flat and polarisation flat or rising; no compound was filed as active; the % refers to the polarisation; negative = inhibition;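 note: % of control where 0% means no effect; inhibitors lower the polarisation; unlabelled MLL peptide was the positive control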
TRPML1 inh – blocks the human TRPML1 channel; Q9GZU1; TRPML1-inducible cells, Ca2+ dye fluorescence, FDSS; stronger effect = lower value; inhibition of EC80 agonist-evoked calcium signal; activity change, negative = inhibition, % (concentration not given with the values); actives 0.02% (n = 390,000); in the data active means activity change below about -50%; inconclusive means about -30% to -50%; inactive means above about -30%;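 note: stimulus is agonist 54-4 at its EC80 concentration; % is set by controls: 0 for no effect and ±100 for the full control effect; compound concentration not given in the record; the text of the record puts the active cut at -80%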
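TRPML1-DL cells, Tet-induced overnight (~16 h, 37 °C) at 1,500 cells/well, were loaded with Ca8 no-wash dye plus quencher for 45-90 min at room temperature. Compounds were pinned during FDSS kinetic reading; agonist 54-4 at EC80 (4 uM final) then added.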
* marks the source's active call; other numbers are inactive results; ? = inconclusive; nt = no result given; & = joins results of further samples; [ ] = remark or other dose.

SMILES	gsp agonist	ClpP mod	TRPML1 agonist	gsp antag	Menin MLL FP FL	TRPML1 inh
CN(C)C(CNC(=O)c1cccc(S(=O)(=O)Nc2ccc(SC(F)F)cc2)c1)c1ccccc1 (centres undefined)	7.8%	-1.6%	3.8	-9.9%	nt	38.0
Cc1ccc(NC(=S)c2ccc(N(C)C)cc2)cc1	1.8%	12.2%	0.2	?	4.3	-7.4
Fc1ccc(C(CCNCc2ccccn2)c2ccc(Cl)cc2)cc1 (centres undefined)	-10.8%[15.4 µM]	2.3%	1.5	-13.4%	-2.9	5.2
CCOC(=O)C1=C(CNCCOc2ccc(OC)cc2)NC(=O)NC1c1ccc2c(c1)OCO2 (centres undefined)	-7.5%[15.4 µM]	-1.7%	1.5	-7.1%	-5.5	-1.0
Cc1nc(N2CCN(c3ccccn3)CC2)c2c(C)c(C(=O)N3CCN(c4ccc(F)cc4)CC3)sc2n1	4.6%[15.4 µM]	nt	1.9	?	nt	-15.5
CN(C)S(=O)(=O)c1ccc(C(=O)OCC(=O)c2ccc3c(c2)NC(=O)CO3)cc1	17.1%[15.4 µM]	nt	0.4	1.3%	2.6	-6.9
CCC1Nc2ncnc(N3CCCCC3)c2N(Cc2ccc(Cl)cc2)C1=O (centres undefined)	-24.1%	1.4%&2.4%	0.3&0.5	-3.2%	nt	-10.7&11.1
CCCN1CCc2c(sc(NC(=O)c3ccc(S(=O)(=O)N(C)c4ccccc4)cc3)c2C(=O)NC)C1	-38.3%[inhibitor]	-2.2%	10.8	-27.6%	?	3.7
CCOC(=O)c1cc(S(=O)(=O)Nc2ccc(OC)cc2OC)cn1C	11.0%	-1.7%	-0.9	2.6%	-0.8	?
O=C(CCC(=O)N(CC(=O)NC1CCCC1)c1cccc(F)c1)Nc1nccs1	4.4%	nt	1.3	-2.5%	1.1	29.3
COc1ccc(CN(CC2CCC(C(=O)O)CC2)C(=S)Nc2cc(C)ccc2C)cc1 (centres undefined)	0.2%	0.3%	0.0	?	1.9	15.0
COc1ccc(Cn2ccc3nc(C)c(C(=O)Nc4cc(OC)c(OC)c(OC)c4)cc3c2=O)cc1	nt	-1.0%	0.9	nt	nt	3.4
Cc1ccc2c(c1)N(C(=O)CCC(=O)Nc1ccccc1Cl)CC(C)O2 (centres undefined)	?	0.8%&1.4%	0.4&2.0	-11.0%	2.5	-1.2&1.0
CCN(CC)C(=O)CCc1nnc(CCc2c[nH]c3ccccc23)o1	-48.6%[inhibitor]	-0.9%	0.3	-1.5%	-3.0	-1.3
Cc1ccc(C)c(N2CCN(C(=O)c3cccc(-n4c(C)nc5cccnc54)c3)CC2)c1	nt	-0.3%	2.2	nt	nt	18.9
CC(C)CN1CCN(Cc2cn(C)c3ccccc23)CC1CCO (centres undefined)	-2.5%[15.4 µM]	1.7%	-0.1	1.9%	1.2	-16.4
CCOC(=O)c1c(NC(=O)CN2CCCCC2)sc2c1CCN(C(=O)OCC)C2	-55.0%[inhibitor]	-29.8%	0.5	?	15.9	-1.9
O=C(CSCC(=O)Nc1cccc([N+](=O)[O-])c1)Nc1ccccc1	-26.7%	0.6%	1.0	3.9%	0.7	28.7
O=C(Nc1cccc(NC(=O)C2CCCO2)c1)c1ccco1 (centres undefined)	35.6%	3.2%	1.4	-0.7%	1.6	-10.7
COc1cc(Cl)ccc1OCc1cc(C(=O)N(C)CCc2c(C)n[nH]c2C)no1	6.2%	1.0%	0.5	?	5.2	7.6
COc1ccc(N(CCC(=O)O)S(=O)(=O)c2ccc(C)cc2C)cc1	14.1%[15.4 µM]	nt	-0.1	-89.0%	-1.4	-7.7
Cc1nc(C(=O)Nc2cc(Cl)ccc2Cl)nn1-c1cc(OC(C)C)c(Cl)cc1Cl	14.7%	-5.5%	1.4	10.0%	-0.6	-13.4
Cc1cccc(NC(=O)CCn2cnnn2)c1	?	1.1%&-1.2%	1.5&1.9	12.5%	-2.3	5.2&-4.7
CC(C)Oc1ccc(/C=N/NC(=O)c2nnn(-c3nonc3N)c2CN(C)C2CCCCC2)cc1	-0.4%	-2.3%	0.1	-0.3%	-5.5	0.7
Cc1nn(CCC(=O)N2CCN(c3ccccc3F)CC2)c(C)c1S(=O)(=O)N1CCCC1	nt	-1.9%	0.4	nt	nt	-15.2
Cc1[nH]nc(-c2ccc(OCc3cnn(-c4ccccc4)c3)cc2O)c1Oc1ccc(Cl)cc1	-40.8%[inhibitor]	-26.9%	-0.1	-3.3%	1.3	17.0
COc1ccc(S(=O)(=O)Nc2c(C)cc(C)cc2C)c2cccnc12	0.1%	3.0%	-0.7	-2.4%	2.2	0.5
Cc1cc(C)n2nc(SC(C)C(=O)NCc3ccco3)nc2n1 (centres undefined)	4.5%	-1.3%	0.4	2.8%	-3.0	15.1
O=C(CSc1nnc(-c2cccs2)n1Cc1ccco1)Nc1ccc2c(c1)OCO2	-49.2%[inhibitor]	-1.3%	0.6	-4.4%	6.9	-0.6
CN(C)CCNC(=O)Cn1c(=O)c2cccn2c2ccc(F)cc21	26.4%	?	2.5&1.1	10.8%	3.1	11.9&-12.7
O=C(N[C@@H](Cc1c[nH]c2ccccc12)C(=O)NC1CC1)c1ccccc1Cl	-3.4%	-0.7%	-0.2	10.5%	3.3	-10.1
C/C(=N\NC(=O)c1cc(C(C)C)[nH]n1)c1ccncc1	2.0%[15.4 µM]	nt	0.2	4.7%	-8.0	-11.8
Cc1c(Cl)cnn1CC(=O)NC1C(=O)N2C(C(=O)O)=C(CSc3nnnn3C)CSC12 (centres undefined)	?	nt	-0.3	2.6%	1.1	-0.4
Cc1c(Cl)c(C(=O)NNC(=S)NCc2ccco2)nn1C	2.8%	-7.0%	0.6	2.7%	0.3	20.8
O=C1CN(C(=O)c2ccc(Br)o2)C(c2ccccc2)c2cc(Br)ccc2N1 (centres undefined)	-19.8%	-0.5%	-0.9	-8.1%	-9.1	-17.0
CC(C)Oc1ccc(CNC(=O)CCCn2c(=O)c3cccn3c3ccccc32)cc1	nt	?	5.0	nt	nt	-10.1
COC(=O)c1cccnc1-n1c(=O)c2cccnc2n(CC(=O)Nc2cccc(C(F)(F)F)c2)c1=O	nt	-4.7%	-0.7	nt	nt	7.3
CCCCn1c(N)c(N(CCOC)C(=O)c2ccc(C)c(S(=O)(=O)N3CCCCC3)c2)c(=O)[nH]c1=O	4.2%[15.4 µM]	0.9%	-0.6	13.0%	nt	0.5
COc1ccc(C(=O)N2CCN(CC(=O)N3CCOCC3)CC2)cc1	nt	-2.0%	0.7	17.8%	-0.1&-9.2	7.8
O=C(NC(=S)NCCN1CCOCC1)c1ccccc1	-28.0%	-1.5%	1.1	0.5%	0.8	-15.4
CC1N(C)c2cccc3cccc(c23)N1C	-13.0%	-2.2%	5.4	-21.9%	-2.1	4.4
Cc1cc(NC(=O)Nc2cc(Cl)ccc2C)no1	-29.5%	0.0%	3.0	3.3%	-15.3	9.9
Cc1cc(F)ccc1S(=O)(=O)N1CCCCC1CCNC(=O)C(=O)NCCN1CCOCC1 (centres undefined)	-12.9%	-3.6%	0.0	-5.8%	nt	8.9
O=C(Nc1ccc(Cl)cc1)Nc1ccon1	11.5%	0.1%	0.6	2.9%	nt	29.4
O=C(NCCSc1c[nH]c2ccccc12)c1ccc(Cl)cc1	nt	-0.2%	0.8	nt	nt	21.3
O=[N+]([O-])c1cccc(Nc2c3ccccc3nc3ccccc23)c1	9.0%	nt	1.1	2.7%	-6.9	7.3
CCOc1ccc2nc(NC(=O)c3cccc(N4C(=O)CCC4=O)c3)sc2c1	-2.6%	-25.5%	-0.2	nt	nt	-1.9
CCC(C)COC(=O)c1ccc(C(=O)O)cc1 (centres undefined)	-19.3%	-0.6%	1.0	-13.9%	3.2	2.5
CCN(C(=O)C(C)OC(=O)CCCNC(=O)c1ccc(Cl)cc1)c1ccccc1 (centres undefined)	4.4%[15.4 µM]	0.9%	-0.2	5.6%	nt	10.8
Cc1ccc(C(=O)CCS(=O)(=O)c2ccc(F)cc2)cc1	-29.7%	-0.9%	0.4	-4.5%	-0.6	16.1
COc1cc(/C=C2/NC(=O)N(CC(=O)Nc3cccc(C)c3)C2=O)ccc1OCC(N)=O	5.3%[15.4 µM]	nt	1.2	nt	0.0	-17.8
CN1OC[C@@H]2CN(C(=O)C(C)(C)C)[C@H](c3cccc(N4CCOCC4)c3)C[C@@H]21	nt	-1.8%	-0.3	5.7%	nt	-15.3
O=C(N=C1SC2CS(=O)(=O)CC2N1Cc1ccccc1Cl)C1CCCO1 (centres undefined)	7.0%	-4.0%	0.8	2.1%	-0.9	-5.2
CSc1ccc(/C=C(\NC(=O)c2ccc(C)cc2)C(=O)Nc2cccc(C)c2)cc1	0.0%	-4.1%	0.2	-9.2%	0.4	-15.1
CNC(=O)CSc1cn(CC(=O)N2CCCCCC2)c2ccccc12	nt	-2.2%	0.7	nt	nt	5.9
C/C(=N\Nc1cccc(Cl)c1)C1(C)N(O)C(C)(C)C(c2ccco2)=[N+]1[O-] (centres undefined)	15.9%	-11.5%	1.0	0.1%	-3.0	23.1
COc1ccccc1OCC(=O)N1CCN(c2ccccc2OC)CC1	-55.3%[inhibitor]	0.7%	1.5	-7.7%	-1.2	37.4
O=C(Cn1ncc2c1-c1ccccc1OC2)N(Cc1ccco1)C1CCCCC1	18.3%	-1.0%	0.3	-11.4%	4.3	5.6
CC(=O)N1c2ccccc2NC2=C(C(=O)CCC2)C1c1ccc(F)cc1 (centres undefined)	-13.9%	-1.1%	-0.6	0.3%	1.1	2.2
Cc1nc(SCc2ccc(F)cc2)c2oc3ccccc3c2n1	-6.4%[15.4 µM]	nt	1.9	12.1%	0.0	-2.5

Copied from the list.
Entry of Cc1ccc(C(=O)CCS(=O)(=O)c2ccc(F)cc2)cc1 in gsp antag: -4.5%
Entry of CCOc1ccc2nc(NC(=O)c3cccc(N4C(=O)CCC4=O)c3)sc2c1 in ClpP mod: -25.5%

(more compounds)
SMILES	gsp agonist	ClpP mod	TRPML1 agonist	gsp antag	Menin MLL FP FL	TRPML1 inh
Cc1cc(C)nc(NS(=O)(=O)c2ccc(NC(=O)C(C)Oc3ccccc3F)cc2)n1 (centres undefined)	8.0%[15.4 µM]	-25.8%	-1.2	-24.3%	-0.9	-9.3
O=C(NCCN1CCCCC1)Nc1ccc(F)c(Cl)c1	4.1%	-1.6%	0.2	13.0%	-0.7	-7.0
COC(=O)c1ccc(COc2ccc(C=O)cc2)o1	?	1.7%	-0.3	0.1%	1.2	12.9
Cc1nc2ncnn2c(C)c1Cc1ccccc1Cl	21.0%	-1.6%	-0.7	?	1.4	-0.1
